YopH inh: YopH tyrosine phosphatase inhibitors, primary screen, biochemical, fluorescence Ex485/Em525. inhibition, %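 (about 10 µM by stock and volumes)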. actives 0.16% (n = 140,000). AID 898, 2007;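 active = inhibition of 50% or more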;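 also: controls were vehicle for no effect and minimum signal wells for full effect; inactives centre near -20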
Mtb growth: M. tuberculosis H37Rv growth inhibitors, H37Rv strain (AID 1626). inhibition, % at 10 µM, or IC50 in µM where a hit was titrated. M. tuberculosis H37Rv growth inhibition; higher % means a stronger effect. actives 0.95% (n = 220,000);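 active = confirmed in a dose series; inconclusive = inhibition above 80% but not taken into the dose series; inactive = below 80% or under 30% at every dose of the series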;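 also: bacteria incubated seven days before Alamar blue readout; 0% = bacteria only wells and 100% = bacteria with antibiotic wells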
Mtb bLac sens: beta-lactam sensitization of Mtb H37Rv, H37Rv. M. tuberculosis H37Rv growth with meropenem, percent inhibition; hits of this screen are not shown here. inhibition, % at 25 µM. actives 0.27% (n = 330,000). AID 434955, 2010;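 active = about 74% or more and at least 40 points above the plate without the antibiotic, then above 30% in a dose series; inconclusive = first-round hits that could not be retested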;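 also: growth measured after seven days incubation then overnight dye step; 0% = bacteria only wells and 100% = bacteria with antibiotic; twin plates without the antibiotic show which effects depend on it; some results filed as inactive read as strong as hits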
RecA intein inh: Mtb RecA intein splicing inhibitors, primary screen, biochemical, fluorescence, HTS; Protein RecA (Mycobacterium tuberculosis (strain ATCC 25618 / H37Rv)), P9WHJ3; cell-free RecA intein splicing; inhibition, %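 (about 9 µM by stock and volumes)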; actives 0.75% (n = 290,000); AID 2221, 2009; in the data active = inhibition above about 30%; inconclusive = no clear call, values can overlap the other calls;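 also: 0% = vehicle wells and 100% = reference inhibitor control wells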
Target sequence (P9WHJ3 whole entry, looked up): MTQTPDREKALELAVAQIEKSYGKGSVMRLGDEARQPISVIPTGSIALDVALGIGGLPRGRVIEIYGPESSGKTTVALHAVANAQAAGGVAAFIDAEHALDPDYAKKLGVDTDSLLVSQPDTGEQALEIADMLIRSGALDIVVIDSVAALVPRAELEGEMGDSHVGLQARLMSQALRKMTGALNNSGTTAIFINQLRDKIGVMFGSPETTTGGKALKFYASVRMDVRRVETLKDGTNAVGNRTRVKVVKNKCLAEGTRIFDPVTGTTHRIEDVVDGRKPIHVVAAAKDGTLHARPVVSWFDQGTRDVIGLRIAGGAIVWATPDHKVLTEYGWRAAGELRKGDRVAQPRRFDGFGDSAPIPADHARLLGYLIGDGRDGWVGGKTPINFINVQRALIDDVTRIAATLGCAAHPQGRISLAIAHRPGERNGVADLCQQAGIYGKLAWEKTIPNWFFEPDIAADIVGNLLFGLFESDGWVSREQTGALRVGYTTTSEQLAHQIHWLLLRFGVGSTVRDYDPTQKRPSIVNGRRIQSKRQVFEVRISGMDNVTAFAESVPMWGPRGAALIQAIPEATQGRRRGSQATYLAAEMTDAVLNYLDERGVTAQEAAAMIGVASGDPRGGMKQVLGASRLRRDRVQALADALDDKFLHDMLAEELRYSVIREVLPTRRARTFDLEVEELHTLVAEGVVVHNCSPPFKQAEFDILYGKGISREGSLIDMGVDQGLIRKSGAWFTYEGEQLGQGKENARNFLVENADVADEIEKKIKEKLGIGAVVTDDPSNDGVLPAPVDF
Arbovirus inh: antivirals against arbovirus infection, primary screen, cell-based, full library, 10K replicate subset; arbovirus infection cell-based antiviral screen; inhibition, % at 10 µM; actives 0.37% (n = 200,000); AID 1251, 2008;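 active = inhibition from about 30%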;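 also: bluetongue infection of BSR cells; cell survival read as ATP light after 72 h; 0% = infected wells without compound and 100% = uninfected wells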
Arbovirus inh repeat: also measured in Arbovirus inh; calls as there; inhibition, %; measured here: 10K subset replicate screen; many hits read low in the repeat;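 first of two repeat runs on a subset; 0% = infected and 100% = uninfected wells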
* = called active by the depositor; ? = inconclusive; / = no result given. Some of the compounds tested; the hit share may differ from the screen's.

SMILES	YopH inh	Mtb growth	Mtb bLac sens	RecA intein inh	Arbovirus inh	others
Cc1cccc(NC(=O)C2CCCN(c3ncnc4c3nc3n4CCCCC3)C2)n1 (stereo unspecified)	/	/	-0.7	4.1	/
COc1ccc(OC)c(NC(=O)c2ccc(CN3CCOCC3)cc2)c1	-34.9	-7.2%	-13.3	-0.3	10.0	Arbovirus inh repeat=-2.4
CCC(C)[C@H]1CNCCN1CCc1cccc2ccccc12 (stereo partly specified)	/	/	-2.4	3.9	/
C=CCNC(=O)c1ccc(N(Cc2ccc(Cl)cc2)S(C)(=O)=O)cc1	/	/	-9.2	-1.0	/
Cc1ccc2[nH]c(C(=O)NCCN3CCCC3)cc2c1	/	/	-1.1	-1.5	/
COc1ccc(S(=O)(=O)NC(C)C(=O)NC2CC2)cc1C (stereo unspecified)	/	/	3.7	-0.4	/
COCCOc1ccc(C(F)(F)F)cc1NC(=O)c1ccccc1	-22.8	28.4%	-7.5	-2.3	-0.2
COC(=O)c1cc(C(=O)c2c(C)cc3ccccn23)cc([N+](=O)[O-])c1	/	/	2.3	10.6	/
O=C(O)CCSCC(=O)Nc1c(C(=O)C2CC2)oc2ccccc12	-35.4	-2.7%	-12.0	-1.4	4.5
COc1cc2c(cc1OC)C1(Nc3c-2c(C)nn3-c2ccccc2)C(=O)Nc2ccccc21 (stereo unspecified)	-0.3	/	40.8	/	-4.9
Cc1ccc(-n2nc(C(N)=O)nc2-c2ccccc2)cc1	/	/	-0.1	1.6	/
O=C(NC1CCCc2ccccc21)C1CCN(S(=O)(=O)c2cnc[nH]2)CC1 (stereo unspecified)	-6.2	-1.5%	0.4	/	-1.0

Compounds above containing an NH in an aromatic ring, in the order listed:
SMILES	YopH inh	Mtb growth	Mtb bLac sens	RecA intein inh	Arbovirus inh	others
Cc1ccc2[nH]c(C(=O)NCCN3CCCC3)cc2c1	/	/	-1.1	-1.5	/
O=C(NC1CCCc2ccccc21)C1CCN(S(=O)(=O)c2cnc[nH]2)CC1 (stereo unspecified)	-6.2	-1.5%	0.4	/	-1.0

Further results
SMILES	YopH inh	Mtb growth	Mtb bLac sens	RecA intein inh	Arbovirus inh	others
Cc1ccc(NS(=O)(=O)c2ccc(-c3ccc(=O)[nH]n3)o2)cc1N(C)C	/	/	-2.0	0.2	/
COC(=O)Cn1c(C)c(C#N)c2ccccc21	-19.9	-3.0%	-2.9	7.8	-0.9
CN(CC(=O)Nc1ccc(F)cc1[N+](=O)[O-])Cc1ccccc1	/	2.8%	7.4	-0.9	-3.9
CC(=O)O[C@@H]1[C@H](OC(=O)CC(C)C)c2c(ccc3ccc(=O)oc23)OC1(C)C	-34.1	-13.0%	-7.0	-0.6	2.1
COc1ccccc1CN1CCN(C(=O)Cc2ccccc2)CC1	/	-3.5%	-3.5	1.4	4.4
N#CC1=C(N)Oc2c(c(=O)oc3ccccc23)C1c1ccccc1OC(=O)c1cccs1 (stereo unspecified)	-14.1	-1.4%	1.3	1.2	-8.8
Cc1nn(C)cc1CN(C)C(=O)c1ccc(OC2CCN(Cc3ccccn3)CC2)cc1	/	/	1.1	2.5	/
O=C(Cc1cccs1)N1CCN=C1SCc1cccc(F)c1	/	-2.6%	-3.5	8.8	/
Cc1ccc(/C=N/Nc2ccc(F)cc2)s1	/	/	-4.7	0.4	/
O=C(CCC(=O)c1cccs1)OCC(=O)c1ccc(Cl)s1	-1.0	-3.3%	2.0	-0.2	-6.4
N/C(=N\c1nc2ccccc2o1)NC(=O)c1cccc(Cl)c1	/	-1.9%	0.4	0.0	/
CCC(C)/C(C)=N/Nc1ccc(S(N)(=O)=O)cc1[N+](=O)[O-] (stereo unspecified)	/	3.7%	3.1	-2.1	12.9

Next part; it opens with the two that closed the last part.
SMILES	YopH inh	Mtb growth	Mtb bLac sens	RecA intein inh	Arbovirus inh	others
N/C(=N\c1nc2ccccc2o1)NC(=O)c1cccc(Cl)c1	/	-1.9%	0.4	0.0	/
CCC(C)/C(C)=N/Nc1ccc(S(N)(=O)=O)cc1[N+](=O)[O-] (stereo unspecified)	/	3.7%	3.1	-2.1	12.9
CCN(CC(=O)Nc1c(F)cccc1F)C(=O)C1CCN(C(=O)c2ccc(F)cc2)CC1	/	/	-4.1	-5.4	/
NC(=O)NOCc1ccccc1	/	-0.8%	-2.7	1.2	15.6
Cc1cc(Cl)ccc1NC(=S)NC1CCCC1	/	/	-5.9	-3.2	/
Oc1ccc(CNc2ccccc2O)cc1	3.7	53.8%	98.9	/	-8.1
Cc1cccc(NC(=O)CCNS(=O)(=O)c2ccc(Cl)cc2)c1	/	/	-3.5	-6.1	/
CCC(=O)N(CCc1ccccc1C)Cc1cc2ccc(C)cc2[nH]c1=O	/	/	-0.6	-1.8	/
COc1ccc(N=C2SC(CC(=O)Nc3ccc(F)cc3)C(=O)N2Cc2ccco2)cc1 (stereo unspecified)	-32.0	8.9%	9.7	-1.0	4.9
Cc1cccc(NC(=O)c2sc(C)nc2C)c1	-4.9	-4.1%	-9.2	3.0	-5.2
COc1ccc(CNC(=O)CSc2n[nH]c(N)n2)cc1	/	/	-5.8	-1.0	/
O=C(NNC(=O)c1sc2ccccc2c1Cl)Nc1ccc(Cl)cc1	-15.3	7.2%	-16.1	-4.4	5.5
O=C(NC1CCN(Cc2ccccc2)CC1)C1CCN(S(=O)(=O)c2ccc(Cl)cc2)CC1	/	/	-0.7	2.3	/
COc1ccc(NC(=O)COC(=O)c2cc(OC)c(OC)c(OC)c2)c([N+](=O)[O-])c1	/	-14.6%	0.0	-12.2	/

Part of the list above in order of length of the SMILES, falling.
SMILES	YopH inh	Mtb growth	Mtb bLac sens	RecA intein inh	Arbovirus inh	others
COc1ccc(NC(=O)COC(=O)c2cc(OC)c(OC)c(OC)c2)c([N+](=O)[O-])c1	/	-14.6%	0.0	-12.2	/
O=C(NC1CCN(Cc2ccccc2)CC1)C1CCN(S(=O)(=O)c2ccc(Cl)cc2)CC1	/	/	-0.7	2.3	/
CCN(CC(=O)Nc1c(F)cccc1F)C(=O)C1CCN(C(=O)c2ccc(F)cc2)CC1	/	/	-4.1	-5.4	/
Cc1nn(C)cc1CN(C)C(=O)c1ccc(OC2CCN(Cc3ccccn3)CC2)cc1	/	/	1.1	2.5	/
CCC(C)/C(C)=N/Nc1ccc(S(N)(=O)=O)cc1[N+](=O)[O-] (stereo unspecified)	/	3.7%	3.1	-2.1	12.9
Cc1cccc(NC(=O)CCNS(=O)(=O)c2ccc(Cl)cc2)c1	/	/	-3.5	-6.1	/
NC(=O)NOCc1ccccc1	/	-0.8%	-2.7	1.2	15.6

Remaining list, next part:
SMILES	YopH inh	Mtb growth	Mtb bLac sens	RecA intein inh	Arbovirus inh	others
CC(C)C(NC(=O)c1cccnc1)C(=O)O (stereo unspecified)	/	-8.5%	4.7	-1.8	3.1
Cc1nnc2n1N=CC=C(c1ccccc1)S2	-5.2	6.5%	-13.8	0.8	0.3
O=C(CC1SC(=Nc2ccccc2)N(CCCCO)C1=O)NCc1ccccc1 (stereo unspecified)	-14.4	-14.9%	-2.6	0.8	-1.8	Arbovirus inh repeat=3.6
C/C(=N/NC(=O)c1ccncc1)c1cc2ccc(O)cc2oc1=O	-18.2	?	99.0	/	-10.9
Oc1c(Cl)cc(Cl)cc1/C=N/NC(=S)NC1CC2C=CC1C2 (stereo unspecified)	/	?	72.8	-13.0	/
CCOC(=O)N1CCC(c2cc(=O)n(-c3ccccc3)[nH]2)CC1	/	0.5%	-1.3	95.5*	-0.6
COc1ccc2oc(C(=O)OCC(=O)N3CCCCC3)c(C)c2c1	/	/	-7.8	3.8	/
CC[C@H](NC(=O)c1c(C)c(-c2ccccc2)nc2ccccc12)c1ccccc1	/	6.2%	1.2	11.1	/
O=C(CSc1nc2c(c(C(F)(F)F)n1)CCc1ccccc1-2)NCc1ccc(F)cc1	-29.6	5.1%	7.1	-0.1	-13.6
CC(C)(C)c1ccc(S(=O)(=O)NCc2ccc(C(=O)N3CCCC3)cc2)cc1	-14.6	-3.3%	-4.1	1.1	1.2
O=C(c1ccc(OC2CCN(Cc3ccc(C(F)(F)F)cc3)CC2)cc1)N1CCCCC1	/	/	51.1	3.9	/
COc1ccc(NC(=O)C2CCCN(S(=O)(=O)c3ccc(Cl)cc3)C2)cc1OC (stereo unspecified)	/	/	-1.6	0.3	/
Cc1ccc(S(=O)(=O)N2CCC(C(=O)Nc3nnc(COc4ccccc4)s3)CC2)cc1	-27.1	2.9%	/	4.4	6.6
CCOC(=O)CSc1nnc(-c2c[nH]c3ccccc23)n1CC	/	14.8%	42.3	-3.8	5.8
Cc1cc(C(=O)COC(=O)c2ccc(O)cc2)c(C)n1CCc1ccc(F)cc1	/	13.1%	57.7	-1.0	15.3
O=C(C1CC1)N1CCN(c2ccnc3cc(Cl)ccc23)CC1	/	-0.1%	-4.5	-1.5	-1.4
Cc1c(OC(C)C(=O)NCCN2CCOCC2)ccc2c(-c3ccccc3)cc(=O)oc12 (stereo unspecified)	/	/	2.5	1.8	/
CCOc1cc(/C=N\NC(=O)c2ccc(NC(=O)CC)cc2)ccc1OC(=O)c1ccccc1	-41.6	-8.1%	-12.7	0.8	6.2
NS(=O)(=O)c1ccc(CCNC(=O)C(=O)NCC2OCCN2S(=O)(=O)c2ccc(F)cc2)cc1 (stereo unspecified)	/	/	1.3	-1.6	/
O=c1[nH]c2ccc(S(=O)(=O)N3CCCCC3)cc2s1	/	/	2.8	0.2	/
COc1ccc(C2Nc3ccccc3NC3=C2C(=O)CC(C)(C)C3)cc1O (stereo unspecified)	/	/	-4.2	-0.8	/
C/C=C(\C)C(=O)NNC(=O)c1sc(-c2ccccc2)nc1C	/	-6.2%	17.3	2.0	/
CN(C)c1ccc(CNC(=O)C2CCN(S(=O)(=O)c3ccc4c(c3)CCCC(=O)N4)CC2)cc1	/	/	-2.5	-1.2	/
CCCCCOC(=O)CSc1nc2c(c(=O)[nH]c(=O)n2C)n1Cc1ccc(Cl)cc1	-11.7	-1.9%	9.7	0.8	0.7	Arbovirus inh repeat=5.2
O=S(=O)([O-])CCC[n+]1c(/C=C\Nc2ccccc2)oc2ccc(-c3ccccc3)cc21	/	3.5%	/	-65.2	4.7
COc1ccc(C(=O)Oc2cccc(/C=N/NC(N)=S)c2)cc1	-27.4	33.6%	91.5	2.2	1.9
Cc1ccc(-n2c(C)csc2=N)cc1	-9.4	2.5%	0.6	-0.1	4.0
CC(NC(=O)/C(C#N)=C/c1ccc(C(=O)O)cc1)c1ccccc1 (stereo unspecified)	/	/	0.1	1.9	/
Cc1oc(-c2cccc(Cl)c2)nc1CS(=O)(=O)CC(=O)NCCN1CCOCC1	/	/	-5.7	-8.3	/
CN(C)c1ccc(C(=O)Nc2nc3c(s2)CCCC3)cc1	6.8	33.8%	83.2	-1.4	8.4	Arbovirus inh repeat=7.7
COC(=O)CN1C(=O)S/C(=C/c2ccc(N3CCCCC3)o2)C1=O	-54.1	-1.6%	13.3	-0.3	1.2
Oc1ccc(N=Nc2nc(-c3ccccc3)c(-c3ccccc3)[nH]2)cc1	-43.4	48.1%	26.8	-0.3	-34.2
COc1ccc(C2CC(c3cccs3)=Nc3ccccc3S2)cc1 (stereo unspecified)	-9.3	8.2%	27.5	10.1	-9.9
COc1ccc2cc1Oc1ccc(cc1)CC1c3c(cc(OC)c4c3Oc3cc5c(cc3O4)CCNC5C2)CCN1C (stereo unspecified)	/	?	-1.2	1.1	/
CC1=C(C(=O)OCc2ccccc2)N2C(=O)[C@@H](NC(=O)COc3ccccc3)[C@H]2SC1	/	/	36.6	-4.0	/
COc1cccc2cc(C(=O)NCc3ccc(F)cc3)c(=N)oc12	/	/	10.7	-2.5	/
COc1ccc(-c2csc(NC(=O)COC(=O)Cc3ccc(Cl)cc3Cl)n2)cc1	-45.4	6.8%	3.9	7.0	0.0
CCOC(=O)N1CCC(N2CCN(Cc3ccc(C)o3)C(CCO)C2)CC1 (stereo unspecified)	/	-12.0%	-3.6	1.7	-3.4
COc1cc(C[C@H](C)[C@H](C)Cc2ccc3c(c2)OCO3)ccc1O	/	-4.5%	9.9	23.6	/
